High-throughput results (PubChem BioAssay)
RN4220 kill: growth inhibition of S. aureus RN4220, primary screen, OD600; AID 1259311, 2017; 16 h; inhibition, % (concentration not given with the values); hit rate 0.33% among 330,000;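 active means z-score of -3 or lower and OD600 up to 0.18 on both plates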;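 further: plate controls were untreated cells for no effect and reference antibiotic for full effect; stock transfer was 100 nL into about 80 µL; one replicate is shown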
Sa ugtP lethal: growth inhibition of ugtP-null S. aureus, primary screen, RN4220 ugtP deletion, OD600 | hit rate 0.54% among 330,000 | growth inhibition, % (test concentration not listed) | 16 h; some inactives read as strong as hits;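 active means z-score under -3 and OD600 up to 0.15 on both plates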;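 further: plate controls were untreated wells for no effect and antibiotic for full effect; wells of about 80 µL received 100 nL stock; the first replicate is given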
PrP 5UTR inh: inhibition of PrP 5' UTR reporter expression; cell-based PrP 5' UTR mRNA reporter, plate reader; inhibition, % (no concentration beside the values); hit rate 0.35% among 340,000; AID 488862, 2010;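 active means every replicate at 50% or more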;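 further: 0 = median of the neutral control wells; tested in H4 reporter cells; numbers are from one replicate; inactives centre near -14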
BJeLR lethal: MLPCN primary cell-based screen for lethality selective to Ras in HRASV12 cells; BJeLR (HRASV12) viability, CellTiter-Glo ATP luminescence, 48 h; reference of the scale not given here; inhibition, % (test concentration not listed); hit rate 0.17% among 300,000; AID 1554, 2009;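 active means replicate mean above 50%; inconclusive means above 50% but judged a plate artefact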;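 further: 50 nL library stock added to about 25 µL; numbers are from one replicate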
Bead autofluor: counter-screen for toxin protease inhibitors: compound fluorescence. compound autofluorescence counterscreen, microsphere flow cytometry; hits give high values. hit rate 3.1% among 360,000. AID 624483. fluorescence intensity (test concentration not listed);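 active means at least 3 SD above the mean of all compounds, about 16000 in these data; inconclusive means too few beads counted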;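 further: 100 nL of 1 mM stock went into each well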
Mtb hypoxia inh: PubChem AID 1159583 | fluorescence inhibition, % (test concentration not listed) | M. tuberculosis hypoxia-regulated fluorescent reporter, fluorescence | hit rate 0.1% among 300,000;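 active means 35 to 45% if threefold the growth effect, above 45% if 1.5-fold the growth effect; inactive means the rest, general growth blockers included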;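 further: wells of about 50 µL received 100 nL stock; 0% = vehicle wells and 100% = reference inhibitor wells; whole bacteria with a GFP reporter of the hypoxia response; strong numbers were not always called active; many hits fall short of the cut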
Mtb hypoxia inh growth: second read-out of Mtb hypoxia inh, no call of its own (marks repeat the call); growth inhibition, %; measured here: M. tuberculosis growth (absorbance);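 0% = vehicle and 100% = reference antibiotic; read after six days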
The depositor's hits bear a star; ? = inconclusive; . = not tested or not shown.

SMILES | RN4220 kill | Sa ugtP lethal | PrP 5UTR inh | BJeLR lethal | Bead autofluor | Mtb hypoxia inh | Mtb hypoxia inh growth
O=C(Nc1cccc2ccccc12)C1CCN(C(=O)Cc2ccccc2)CC1 | 5.1 | -2 | -11 | -2 | 2633 | 6 | 11
Cc1cc(C([O-])=C(C(=S)Nc2ccccc2)[n+]2ccccc2)c(C)n1-c1ccccc1 | 4.5 | 11 | 13 | . | 2920 | 9 | 5
COCC(=O)n1nc(-c2ccc(C)cc2)nc1NCc1ccc(F)cc1 | -2.0 | 12 | -56 | . | 4393 | 5 | 9
Cc1cccc(N=C2NC(=O)/C(=C/c3cccnc3)S2)c1 | 6.7 | 18 | -5 | 0 | 5873 | 2 | 3
COc1cc(CN2CCN(C(C)C)C(CCO)C2)ccc1OCc1ccccc1 (configuration not stated) | 1.1 | 5 | -42 | -7 | 2660 | 0 | 2
Cc1ccc(NC(=O)CSc2nnc3ccccn23)cc1 | 3.3 | 5 | -30 | 2 | 2609 | 8 | 6
CCOc1ccc(C(=O)NC(=S)Nc2ccccn2)cc1[N+](=O)[O-] | 2.0 | 3 | -47 | -1 | 2741 | . | .
COCC(C)N=Cc1c(O)[nH]c2ccccc12 (configuration not stated) | 8.9 | -7 | -23 | -4 | 8068 | 8 | 6
O=C(c1ccc(Cl)c(S(=O)(=O)N2CCOCC2)c1)N1CCCCC1 | 4.1 | 9 | -13 | 6 | 2228 | 6 | 2
CC(=O)c1cccc(CN2CCC(n3nccc3NC(=O)CCc3ccccc3)CC2)c1 | 1.9 | 8 | -31 | 0 | 6170 | 1 | -4
COc1cc(N)c(Cl)cc1C(=O)OCC(=O)NC(=O)NCc1ccco1 | 1.4 | -4 | -10 | . | 2859 | 3 | 2
O=C1OCCN1C(=O)[C@H]1[C@H](c2ccccc2)C(c2cccc(Cl)c2)=NN1c1ccccc1 | -4.2 | 56 | -10 | . | 3774 | -5 | 4
C(=NNc1nc(Nc2ccccc2)nc(N2CCCCC2)n1)c1ccco1 | 15 | 3 | . | . | . | 9 | 19
Cc1ccc(OCCC(=O)OCC(=O)N2c3ccccc3CC2C)cc1 (configuration not stated) | 5.4 | 6 | -4 | -7 | 3219 | 13 | 0
CCN(CC)C(=O)CSc1nc2c(sc(=S)n2-c2ccccc2OC)c(=O)n1-c1ccccc1 | -2.7 | 4 | -22 | -9 | 3828 | 6 | 2
CC(C)(C)C(=O)OCCNc1nc(-c2ccccc2)nc2ccccc12 | 2.2 | -8 | -44 | 9 | 8824 | 9 | 7
CCOc1ccccc1N(CC(=O)Nc1cccnc1)S(=O)(=O)c1ccc(C)cc1 | 4.8 | -4 | 54* | -4 | 4259 | 6 | 9
O=C(Nc1cc([N+](=O)[O-])ccc1N1CCCC1)c1ccco1 | -2.0 | -1 | -12 | . | 4320 | -2 | 5
COc1ccc(NC(=O)Nc2ccc3c(c2)CC(=O)N(C(C)CO)CC(C)C(CN(C)Cc2ccc(C(=O)O)cc2)O3)cc1 (configuration not stated) | 8.6 | 5 | . | . | . | 9 | 9
CC(C)NS(=O)(=O)c1ccc(OCC(=O)N2CCCC2)c(Cl)c1 | 1.7 | 5 | -56 | . | 7998 | 5 | 1

Structures shown so far with a furan ring, fused or not:
SMILES | RN4220 kill | Sa ugtP lethal | PrP 5UTR inh | BJeLR lethal | Bead autofluor | Mtb hypoxia inh | Mtb hypoxia inh growth
COc1cc(N)c(Cl)cc1C(=O)OCC(=O)NC(=O)NCc1ccco1 | 1.4 | -4 | -10 | . | 2859 | 3 | 2
C(=NNc1nc(Nc2ccccc2)nc(N2CCCCC2)n1)c1ccco1 | 15 | 3 | . | . | . | 9 | 19
O=C(Nc1cc([N+](=O)[O-])ccc1N1CCCC1)c1ccco1 | -2.0 | -1 | -12 | . | 4320 | -2 | 5

(more compounds)
SMILES | RN4220 kill | Sa ugtP lethal | PrP 5UTR inh | BJeLR lethal | Bead autofluor | Mtb hypoxia inh | Mtb hypoxia inh growth
Cc1ccnc(NC(=O)c2ccc(COc3ccc(Cl)cc3)o2)c1 | 1.7 | -2 | -36 | -5 | . | . | .
Cc1oc(-c2ccccc2F)nc1CN1CCC(C(=O)NC2CCCc3ccccc32)CC1 (configuration not stated) | 1.8 | -5 | -59 | 5 | 10248 | 9 | 10
Cc1cccc(C)c1CC(=O)N1CCOCC1 | 4.5 | 4 | -16 | 24 | 4473 | 17 | 2
CCOc1ccc(CCNC(=O)COC(=O)c2cccc(OC)c2O)cc1OCC | -2.3 | -15 | -6 | 7 | 3410 | -11 | 15
COc1cccc(/C=C/C(=O)OCC(=O)NCc2ccc3c(c2)OCO3)c1 | 3.7 | 3 | -22 | . | 5871 | 0 | 1
CC=C(C)C(=O)NCCN1C2=NCC(Cc3ccccc3)N2CC1Cc1ccc(O)cc1 (configuration not stated) | -0.3 | -13 | . | . | . | 8 | 2
O=C1OCCN1CCN(CN1C(=O)CCC1=O)CN1C(=O)CCC1=O | -1.4 | 0 | -13 | 14 | 9759 | 15 | 9
CCOc1ccccc1N1CCN(C(=O)Nc2ccc(F)c(Cl)c2)CC1 | -5.5 | -24 | -31 | -3 | 9190 | 7 | -5
COc1ccc(NS(=O)(=O)c2cccc(C(=O)NNC(=O)COc3ccccc3)c2)cc1 | 8.6 | 12 | -27 | 5 | 3923 | 8 | 0
Cc1nc(Nc2ccc(C(=O)O)cc2)nc(Nc2ccc(C(=O)O)cc2)c1[N+](=O)[O-] | 1.0 | 9 | -17 | 4 | 4499 | 11 | 7
CC(=O)N1N=C(c2cccs2)CC1c1cc2cc(C)ccc2nc1Cl (configuration not stated) | 6.3 | 5 | -22 | 1 | 4415 | 5 | -5
O=C(O)CCC(=O)N1CC=C(c2ccccc2)CC1 | 5.8 | 15 | -5 | -2 | 10318 | 20 | 7
Cc1cc(Cl)c(OCCCCN2CCOCC2)c(Br)c1 | -0.1 | 35 | -4 | 9 | 7296 | 6 | 5
Cc1nc(Nc2nc(CSc3nc4ccccc4[nH]3)cc(=O)[nH]2)nc2ccccc12 | . | . | 4 | -8 | 9543 | . | .
CCCCNC(=O)C(=O)NN=Cc1ccc(C(=O)OC)cc1 | 3.6 | 2 | . | . | . | 13 | 8
COc1ccccc1OCCNC(=O)CSC(=S)N1CCCC1 | 0.8 | 3 | -15 | -9 | ? | 13 | 3
O=C(Nc1ccccc1)C1CC=CC2CCN(Cc3ccc(Cl)c(Cl)c3)C(=O)C21 (configuration not stated) | -1.5 | 2 | . | . | . | 15 | 11
CCC1=C(OC(=O)N(CC)CC)N2C(=O)OC(=NCCOC)[C@]2(Cc2ccccc2)[C@H]2C1=CC[C@H]1C(=O)N(C)C(=O)[C@H]12 | . | . | -19 | -7 | 3936 | . | .
COc1ccc(CNC(=S)NCc2ccc(F)cc2)cc1 | -4.3 | 3 | -13 | -15 | 5971 | -1 | -5
Cc1cccc(OC(C)C(=O)NN=Cc2ccncc2)c1 (configuration not stated) | 2.5 | 4 | . | . | . | 13 | 8
CC(Oc1ccc(Br)cc1)C(=O)Nc1cc(S(=O)(=O)N2CCOCC2)ccc1N1CCCC1 (configuration not stated) | -0.8 | 9 | -2 | -12 | . | 3 | 10
COc1ccc(OC)c(NC(=O)C2CCN(C(=O)c3cccs3)CC2)c1 | -1.9 | 1 | -17 | -13 | 2547 | -12 | -12
O=C1CCN(CCc2ccccc2)CCN1C(CSc1ccc(Br)cc1)Cc1ccccc1 (configuration not stated) | 7.6 | -3 | . | . | . | 19 | 13
CN(Cc1ccccc1)C(=O)CCS(=O)(=O)c1ccc2c(c1)NC(=O)CS2 | -5.1 | -3 | -4 | -5 | 5683 | -7 | -7
COc1cc(NS(=O)(=O)c2ccc(NC(=S)NC(=O)c3ccc(F)cc3)cc2)nc(OC)n1 | 10 | 11 | -6 | -6 | 3744 | 6 | -3
COc1cccc(CNS(=O)(=O)c2ccc(S(=O)(=O)N3CCCC3)cc2)c1 | -2.6 | -6 | -22 | -4 | 2325 | -4 | -13
CC(Sc1nnc(CNC(=O)c2ccco2)n1C)C(=O)Nc1nccs1 (configuration not stated) | 3.7 | 2 | -18 | -2 | 6345 | 15 | 6
O=C(Nc1ccc(F)cc1)C(c1ccccc1)N1CCN(CC(=O)N2CCOCC2)CC1 (configuration not stated) | 1.5 | 1 | 6 | . | 5350 | 18 | -4
Cc1cc(C(F)F)nn1CC(=O)N1CCSCC1 | 0.5 | -1 | -10 | -11 | 3246 | 7 | 5
COc1ccccc1NC(=O)c1ccc(-c2ccc(Br)cc2)o1 | 8.7 | -9 | -46 | 16 | 2123 | . | .
COc1cc(NC(=O)c2cc3c(=O)n(C)c4ccccc4c3n2C)cc(OC)c1OC | 4.7 | 1 | -11 | -16 | 5794 | . | .
COc1cc(C=NN=C2SC(CC(=O)O)C(=O)N2c2ccc(O)cc2)ccc1O (configuration not stated) | 3.0 | -2 | . | . | . | 12 | 2
CN(CC(=O)N1CC(=O)N(CCc2ccccc2)C(=O)C1)S(=O)(=O)c1cccc2nsnc12 | 2.6 | -1 | -17 | 4 | 10772 | -2 | 14
COCCN(CC(=O)Nc1ccccc1C(F)(F)F)C(=O)c1ccc(-n2cccn2)cc1 | 0.6 | -2 | 0 | . | 8548 | -9 | 6
CCC(C)(C(=O)NC1CCCC1)N(C(=O)CNC(C)=O)c1ccc(C)cc1 (configuration not stated) | -1.2 | 11 | -9 | -5 | 3653 | 14 | 5
Cc1cc(C)n2nc(SCC(=O)NN=Cc3cccc(Br)c3)nc2n1 | 0.9 | 0 | . | . | . | -6 | 0
S=C(NCCc1ccccc1)Nc1cnc2ccccc2c1 | 2.1 | 7 | -48 | 3 | 4593 | 2 | 8
O=C(CC1SCCNC1=O)Nc1cccc(C(F)(F)F)c1 (configuration not stated) | 1.8 | 5 | -7 | 5 | 14322 | -4 | -2
CCC(C)(C)n1nnnc1C(c1cc2cc3c(cc2[nH]c1=O)OCO3)N1CCCCC1 (configuration not stated) | 4.0 | 8 | . | 5 | 10893 | -2 | -4
O=[N+]([O-])c1ccc(S(=O)(=O)Nc2ccc(-c3ccc(N4CCOCC4)nn3)cc2)cc1 | 9.9 | 5 | -13 | -6 | 5910 | 8 | 10
CC(C)C(=O)Nc1nnc(S(=O)(=O)N2CCCc3ccccc32)s1 | 8.1 | -21 | -15 | -1 | 5959 | -8 | 0
CCOC(=O)Cn1nc(-c2ccccc2)c2ccccc2c1=O | 5.1 | 5 | -22 | 0 | 12233 | -1 | 8
Cc1nc(-c2nc(CC(=O)NNC(=O)c3ccc(Cl)cc3)cs2)cs1 | 3.0 | 5 | -27 | 4 | 3727 | -8 | -3
CCOc1ccc(NC(=O)CSc2nnc(C)n2CCCOC)cc1 | 2.9 | 3 | -11 | -7 | 9598 | 2 | 3
CCOC(=O)C1(CCCc2ccccc2)CCN(C(=O)CSC)CC1 | 11 | 5 | -24 | -14 | 3200 | 17 | 11
Cc1ccc(C)c(NC(=O)CSc2c(C)n[nH]c2C)c1 | 4.2 | 2 | -44 | -1 | 4755 | 13 | 2
O=C(NNC(=O)c1ccccc1Br)c1ccc(Cl)cc1 | 33 | 12 | -29 | 3 | 10263 | 3 | 5
COc1cc(S(=O)(=O)N(Cc2cccnc2)Cc2cccc(OC)c2OC)ccc1-n1cnnn1 | 0.9 | 8 | -2 | -2 | 4627 | 10 | 9
CC(=O)Nc1cccc(NC(=O)CSc2nc(C)c(C)c(C)c2C#N)c1 | -7.7 | -4 | -15 | 3 | 21241* | -9 | 5
CCC(CC(C)(C)c1ccccc1)=NO | 11 | -10 | . | . | . | 17 | 12
Cc1onc(-c2ccccc2)c1C(=O)Nc1cccc(C#N)c1 | 0.4 | -1 | -19 | -4 | 3933 | . | .
O=C(COc1ccccc1)Nc1cccc(-c2nc3ccccc3[nH]2)c1 | 20 | -13 | -13 | -3 | 1958 | 3 | -1
Cc1onc(-c2ccccc2Cl)c1C(=O)Nc1ccc(S(=O)(=O)NCC2CCCO2)cc1 (configuration not stated) | 3.1 | 7 | -9 | 2 | 7936 | 10 | -7
Nn1cnc2scc(-c3ccco3)c2c1=O | 8.6 | 1 | 1 | -6 | 5248 | -5 | -4
O=S1(=O)N=C(N(CCO)N=Cc2ccc(Cl)cc2)c2ccccc21 | 8.1 | 1 | . | . | . | -10 | -3
CCCC(=O)Nc1cccc(NC(=O)c2ccccc2Br)c1 | 3.6 | 4 | . | 0 | 11264 | 12 | 10
